Assay outcomes from PubChem.
TRPML1 ag: qHTS for Agonists of the Human Mucolipin Transient Receptor Potential 1 (TRPML1); AID 624414, 2012; activation, % (no concentration beside the values); 410,000 compounds, 0.12% hits; TRPML1-expressing cells, Ca2+ dye fluorescence, FDSS; host cell line not named in the record; reference of the full effect not given here; in the data active = activation above about 50%; inconclusive = about 30% to 50%; inactive = below about 30%; note: 0% is about no effect; the text of the record puts the active cut at 80%
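Kinetic FDSS Ca2+ read in Tet-induced TRPML1-DL cells (ABD Ca8 dye plus quencher, 45-90 min RT loading): baseline, then compound, then 110 s agonist window; EC80 agonist 54-4 at 4uM final added afterwards for a 110 s antagonist window.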
TRPV1 PAM: HTS Assay for Compounds that Act as Potentiators of the Vanilloid Receptor 1 | AID 540277, 2011 | TRPV1-expressing cells, Fluo-8 calcium influx, capsaicin EC20 potentiation; host cell line not named in the record; control for the full effect not named in the record | 320,000 compounds, 0.02% hits | potentiation, % at 8.33 µM | Transient receptor potential cation channel subfamily V member 1 (Homo sapiens), Q8NER1; active means potentiation above 80%; inconclusive means 30% to 80%; inactive means below 30%; note: 0% is about no effect
Target sequence (Q8NER1 whole entry, looked up): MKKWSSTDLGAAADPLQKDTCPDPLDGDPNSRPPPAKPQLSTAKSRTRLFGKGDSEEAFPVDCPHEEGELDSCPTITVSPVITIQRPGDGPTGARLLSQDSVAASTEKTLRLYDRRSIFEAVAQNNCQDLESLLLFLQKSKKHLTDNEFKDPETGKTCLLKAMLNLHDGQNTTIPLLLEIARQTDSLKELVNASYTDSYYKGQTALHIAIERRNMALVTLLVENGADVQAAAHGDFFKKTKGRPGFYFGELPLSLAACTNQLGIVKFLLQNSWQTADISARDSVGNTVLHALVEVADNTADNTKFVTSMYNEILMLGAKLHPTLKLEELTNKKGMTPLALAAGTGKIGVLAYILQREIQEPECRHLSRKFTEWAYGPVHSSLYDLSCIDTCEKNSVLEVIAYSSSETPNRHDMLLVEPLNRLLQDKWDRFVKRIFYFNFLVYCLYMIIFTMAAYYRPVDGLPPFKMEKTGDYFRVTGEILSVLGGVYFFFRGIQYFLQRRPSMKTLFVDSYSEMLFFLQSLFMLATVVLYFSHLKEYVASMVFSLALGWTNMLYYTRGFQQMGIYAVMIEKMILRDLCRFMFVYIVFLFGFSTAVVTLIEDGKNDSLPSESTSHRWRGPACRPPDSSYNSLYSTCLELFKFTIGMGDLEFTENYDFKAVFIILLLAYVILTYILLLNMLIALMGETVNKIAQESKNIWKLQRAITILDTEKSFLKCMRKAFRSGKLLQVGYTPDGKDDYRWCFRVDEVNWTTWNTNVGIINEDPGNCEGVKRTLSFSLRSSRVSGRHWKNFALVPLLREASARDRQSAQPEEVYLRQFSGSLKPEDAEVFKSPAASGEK
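Fluo-8 calcium influx in TRPV1-expressing cells, kinetic read (ex 480/em 520 nm). Compound added and read 3 min for agonist activity, followed by capsaicin at EC20 final and 2 min further read for enhancement.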
D2 PAM: Beta-Arrestin HTS for Positive Allosteric Modulators of the Human D2 Dopamine Receptor: Potentiators. 360,000 compounds, 0.23% hits. DiscoveRx D2 beta-arrestin cells, luminescence, 90 min; 100% = 57 uM dopamine signal. D(2) dopamine receptor (Homo sapiens), P14416. potentiation, % (concentration not given with the values); active = potentiation of 50% or more; inconclusive = 30% to 50%; inactive = 30% or less;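 note: tested on top of an EC20 dose of dopamine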
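PathHunter D2 cells, attached overnight at 37 deg C, received compound in DMSO plus dopamine at EC20 (50 nM final) for 90 min at 37 deg C. Beta-arrestin recruitment was read as luminescence after 1 h with detection reagent at ambient temperature.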
Six1-Eya2 inh: qHTS Assay for Inhibitors of the Six1/Eya2 Interaction. Homeobox protein SIX1 (Homo sapiens) + Protein phosphatase EYA2 (Homo sapiens), …. AlphaScreen GST-Six1/His-Eya2 binding, biochemical; active compounds read low; control for the full effect not named in the record. activity change, % (test concentration not listed). 360,000 compounds, 0.56% hits. AID 651725, 2012; in the data active = activity change below about -65%; inconclusive = about -30% to -65%; inactive = above about -30%; note: % is set by controls: 0 for no effect and ±100 for the full control effect
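Compounds are tested against tagged Six1 and Eya2 proteins bridged by glutathione donor and nickel acceptor beads; after a one-hour incubation at 37 °C without light, AlphaScreen emission is recorded.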
CtBP-E1A inh: qHTS Assay for Inhibitors of the CtBP/E1A Interaction; CtBP / adenovirus E1A interaction (AlphaScreen); AlphaScreen GST-E1A/His-CtBP binding, 1536-well; active compounds read low; control for the full effect not named in the record; activity change, % (test concentration not listed); 340,000 compounds, 0.49% hits; AID 651724, 2012; in the data active means activity change below about -65%; inconclusive means about -30% to -65%; inactive means above about -30%; note: % is set by controls: 0 for no effect and ±100 for the full control effect
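Homogeneous bead-based format: GST-tagged E1A captured on glutathione donor beads, His-tagged CtBP on nickel acceptor beads; compounds precede bead addition by 2 h at 37 °C.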
TRPML1 blocker: qHTS for Inhibitors of the Human Mucolipin Transient Receptor Potential 1 (TRPML1). Mucolipin-1 (Homo sapiens), Q9GZU1. TRPML1-inducible cells, Ca2+ dye fluorescence, FDSS; active compounds read low; inhibition of EC80 agonist-evoked calcium signal. activity change, negative = inhibition, % (no concentration beside the values). 390,000 compounds, 0.02% hits. AID 624415, 2012; in the data active means activity change below about -50%; inconclusive means about -30% to -50%; inactive means above about -30%;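 note: stimulus is agonist 54-4 at its EC80 concentration; % is set by controls: 0 for no effect and ±100 for the full control effect; compound concentration not given in the record; the text of the record puts the active cut at -80%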
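Calcium fluorescence in TRPML1-DL cells induced overnight with Tet: a 110 s read after compound pin addition, then a 110 s antagonist read after challenge with 54-4 at 4 uM final (EC80).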
Numbers without * were called inactive; ? = inconclusive; . = not tested or not shown.

Keys: A = TRPML1 ag; B = TRPV1 PAM; C = D2 PAM; D = Six1-Eya2 inh; E = CtBP-E1A inh; F = TRPML1 blocker
N#Cc1ccccc1NC(=O)c1ccccc1OCC(=O)Nc1ccc2c(c1)oc1ccccc12
  A: -0.2 | B: . | C: 2 | D: -11 | E: -7 | F: -1
O=C(CN(Cc1ccccc1Cl)C(=O)c1csnn1)NC1CCCC1
  A: -0.7 | B: 3 | C: -3 | D: 4 | E: 25 | F: 13
Cc1ccc(N=Nc2ccc3ccccc3c2O)cc1
  A: -0.6 | B: 3 | C: -9 | D: -88* | E: -1 | F: 13
Cc1cccc(Cn2c(N(C)Cc3ccccc3)nc3c2c(=O)[nH]c(=O)n3C)c1
  A: 0.0 | B: -8 | C: -2 | D: -8 | E: -7 | F: 20
O=C(CSc1nnc(C2CC2)n1C1CC1)N1CCN(c2ccc(O)cc2)CC1
  A: 0.1 | B: . | C: -10 | D: -19 | E: -11 | F: 27
COc1ccccc1CN(C)S(=O)(=O)c1cccs1
  A: 3.2 | B: 0 | C: -9 | D: 14 | E: 5 | F: 15
CCCn1nc(C(=O)NC2CC2)c2ccccc2c1=O
  A: -0.1 | B: 4 | C: -4 | D: 2 | E: 7 | F: -5
Cc1sc(-c2ccccn2)nc1OC(=O)c1cccc(Cl)c1Cl
  A: 1.3 | B: ? | C: -24 | D: -7 | E: -21 | F: 7
CN(NC1OC(=O)c2ccccc21)c1ncc(Cl)cc1C(F)(F)F (configuration not stated)
  A: -0.1 | B: 10 | C: 0 | D: -2 | E: 3 | F: -2
CCOCCn1c(=NC(=O)CSCC(=O)N2CCOCC2)sc2cc(OC)ccc21
  A: 0.0 | B: -44 | C: -7 | D: 8 | E: -1 | F: -5
N#Cc1cnn2cc(CCN3CCOCC3)c(-c3ccc(F)cc3)nc12
  A: -0.6 | B: 4 | C: -1 | D: 5 | E: 17 | F: -1
CC(=O)c1ccc(S(=O)(=O)N2CCC(c3nc4ccccc4[nH]3)CC2)cc1
  A: -0.2 | B: 2 | C: -11 | D: -9 | E: -3 | F: 5
O=P(CCN1CCCCC1)(c1ccccc1)c1ccccc1
  A: 0.2 | B: 29 | C: -25 | D: 6 | E: -1 | F: -17
COC(=O)c1cc(C)sc1NC(=O)CC1Nc2ccccc2NC1=O (configuration not stated)
  A: -0.3 | B: -21 | C: 0 | D: 12 | E: 5 | F: 19
O=C(Nc1cccc2ccccc12)c1cccc([N+](=O)[O-])c1
  A: 1.1 | B: 2 | C: -9 | D: -6 | E: . | F: -16
CC(=O)C1=C(C)N(CC2CC2)C(=O)N[C@H]1c1ccc(Br)cc1
  A: -0.4 | B: 8 | C: 2 | D: 11 | E: 9 | F: 17
CCN(CC)CCCN(Cc1cc2cc(OC)c(OC)cc2[nH]c1=O)C(=O)Nc1ccccc1
  A: -0.3 | B: -1 | C: -12 | D: -7 | E: -5 | F: -7
COc1ccc(C[C@H]2CN3C(=NC[C@H]3Cc3ccccc3)N2CCNC(=O)CCC2CCCCC2)cc1
  A: 0.4 | B: 16 | C: -22 | D: 1 | E: . | F: 13
Cc1occc1C(=O)N/N=C/C1=C(N2CCOCC2)C(=C/c2ccc(Cl)cc2Cl)/CC1
  A: 1.5 | B: . | C: 8 | D: -1 | E: 0 | F: -3
FC(F)(F)c1nnc2c(Sc3ccccn3)nc3ccccc3n12
  A: -0.1 | B: -22 | C: 8 | D: 0 | E: 5 | F: ?
CCc1ccc(CN(C)C(=O)c2cc(COc3cccc(C(F)(F)F)c3)on2)nc1
  A: 4.6 | B: -14 | C: -17 | D: 7 | E: 16 | F: -1
O=c1[nH]c(/C=C/c2cccc3ccccc23)nc2ccccc12
  A: -0.1 | B: 13 | C: -13 | D: 7 | E: -9 | F: -9
Cc1cccc(N(CC(=O)N2CCCC2)S(=O)(=O)c2ccccc2)c1C
  A: 0.1 | B: -7 | C: -16 | D: 7 | E: -1 | F: 8
O=C1c2ccccc2C(=O)N1Cc1nc2ccccc2c(=O)n1CCCN1CCOCC1
  A: -0.3 | B: -5 | C: -6 | D: 4 | E: 9 | F: -3
Cc1c(Br)c([N+](=O)[O-])nn1C(C)C(=O)N1CCc2ccccc2C1 (configuration not stated)
  A: -0.3 | B: -15 | C: -6 | D: -1 | E: 1 | F: 13
CC(=O)c1ccc(N2CCN(C(=O)CCC(=O)c3cccs3)CC2)cc1
  A: -0.1 | B: -7 | C: -8 | D: -8 | E: . | F: -11
O=C(COc1cccc(F)c1)Nc1nc(-c2ccncc2)cs1
  A: -0.3 | B: -4 | C: -3 | D: -8 | E: . | F: 2
CC(C)(C)NS(=O)(=O)c1ccc(OCC(=O)NCCC2=CCCCC2)cc1
  A: 0.0 | B: 23 | C: -7 | D: 5 | E: 6 | F: -1
Cc1cccc(NC(=S)N/N=C/c2cccc(O)c2)c1C
  A: . | B: 2 | C: 7 | D: -2 | E: -2 | F: .
COc1ccccc1C/C(N)=N/OC(=O)COc1cccc(C)c1C
  A: 0.8 | B: ? | C: 2 | D: 33 | E: 60 | F: 6

Filtered by structure: the entries above containing two or more sulfur atoms
Keys: A = TRPML1 ag; B = TRPV1 PAM; C = D2 PAM; D = Six1-Eya2 inh; E = CtBP-E1A inh; F = TRPML1 blocker
COc1ccccc1CN(C)S(=O)(=O)c1cccs1
  A: 3.2 | B: 0 | C: -9 | D: 14 | E: 5 | F: 15
CCOCCn1c(=NC(=O)CSCC(=O)N2CCOCC2)sc2cc(OC)ccc21
  A: 0.0 | B: -44 | C: -7 | D: 8 | E: -1 | F: -5

(cont.)
Keys: A = TRPML1 ag; B = TRPV1 PAM; C = D2 PAM; D = Six1-Eya2 inh; E = CtBP-E1A inh; F = TRPML1 blocker
CN(C)C(=O)c1ccc(NC(=O)CSc2nc3ccccc3[nH]2)cc1
  A: 0.3 | B: -3 | C: 15 | D: -16 | E: 2 | F: 9
CCO[C@H]1OC(C(=O)N2CCN(C)CC2)=C[C@@H](c2csc3ccccc23)[C@@H]1CCCO
  A: 0.3 | B: 14 | C: -14 | D: 6 | E: 6 | F: -16
Cc1ccc(-n2c(=O)cc(NCc3cccnc3)[nH]c2=O)cc1
  A: 0.8 | B: -14 | C: -9 | D: 2 | E: -2 | F: -5
CC(=Nc1ccccc1)C1=C(O)C(Cc2cccc(F)c2)NC1=O (configuration not stated)
  A: -0.2 | B: . | C: -16 | D: -1 | E: 2 | F: 0
CCOc1ccc(S(=O)(=O)N(CC)CC(=O)NCc2cccnc2)cc1C
  A: -0.5 | B: 3 | C: -1 | D: 5 | E: 7 | F: 0
COc1cccc(/C=C2\SC(N)=NC2=O)c1OS(=O)(=O)c1ccccc1
  A: 0.1 | B: 4 | C: -4 | D: 15 | E: -1 | F: 17
COc1ccc(Cl)cc1NC(=O)CSc1nnc(-c2ccco2)o1
  A: -0.8 | B: 17 | C: -24 | D: 1 | E: 7 | F: 16
CC12CCC(C(=NO)C1=NO)C2(C)C (configuration not stated)
  A: -0.6 | B: . | C: 0 | D: -1 | E: 2 | F: -1
O=C(NCc1nnc(SCC(=O)N2CCN(c3ccccc3)CC2)o1)c1ccccc1
  A: 0.4 | B: 13 | C: -3 | D: 12 | E: 3 | F: 3
COCCNS(=O)(=O)c1cc(OC)c(C)cc1C
  A: -0.5 | B: -6 | C: -4 | D: -1 | E: 8 | F: -12
C=CCN1C=C2C(=O)C(C)(OC(=O)C3CCCC3)C(=O)C(c3ccccc3)=C2C=C1CCCC(=O)OC (configuration not stated)
  A: -0.2 | B: -9 | C: 8 | D: 1 | E: -9 | F: 13
Clc1ccc(CNc2ccccc2NCc2ccc(Cl)nc2)cn1
  A: -1.2 | B: ? | C: 3 | D: -20 | E: 9 | F: -5
CCC(C)NC(=O)c1ccc(-n2c(=S)[nH]c3ccccc3c2=O)cc1 (configuration not stated)
  A: 0.1 | B: -7 | C: 1 | D: 5 | E: 12 | F: 7
COc1cccc(C(=O)OCc2ccccc2C#N)c1O
  A: 1.6 | B: -11 | C: -4 | D: 17 | E: 8 | F: 8
CC(C)C(NC(=O)C1CC(=O)N(Cc2ccccc2)C1)c1nc2ccccc2[nH]1 (configuration not stated)
  A: 1.1 | B: . | C: -6 | D: 2 | E: 2 | F: 5
CC1(c2ccc3ccccc3c2)NC(=O)N(CC(=O)N2CCN(Cc3ccccc3)CC2)C1=O (configuration not stated)
  A: 0.3 | B: 10 | C: -2 | D: -2 | E: -8 | F: 2
CC1CCCCN1C(=O)CNCc1ccc(F)cc1 (configuration not stated)
  A: -0.2 | B: -12 | C: -6 | D: 15 | E: 0 | F: 18
O=C(NNC(=O)C1CCN(c2ncccn2)CC1)c1ccccc1
  A: 0.1 | B: 2 | C: -6 | D: -1 | E: . | F: 12
Nc1cc(C(=O)N2CCCC2)cc(C(=O)N2CCCC2)c1
  A: 0.6 | B: 7 | C: 1 | D: 7 | E: 5 | F: 4
CC(C)N1CCC(N2CCN(Cc3ccc4nsnc4c3)CC2CCO)CC1 (configuration not stated)
  A: 0.3 | B: 1 | C: 5 | D: 8 | E: 6 | F: -17
COc1cccc(-c2cc(NC=O)c3ncc(-c4cc(OC)c(OC)c(OC)c4)n3c2)c1
  A: -0.4 | B: . | C: -5 | D: -15 | E: ? | F: .
COc1cc2c(cc1OC)C1C/C(=N\O)C(CC(C)C)CN1CC2 (configuration not stated)
  A: -1.2 | B: -5 | C: -41 | D: -8 | E: 2 | F: 18
CC1CC(C)CN(S(=O)(=O)c2ccc3c(c2)n(C)c(=O)c(=O)n3C)C1 (configuration not stated)
  A: 0.4 | B: . | C: 1 | D: 2 | E: 1 | F: 23
CC(CCC(=O)O)C1CCC2C3CC(O)C4CC(O)CC[C@]4(C)C3CCC12C (some centres not stated)
  A: . | B: . | C: -8 | D: 1 | E: 3 | F: .
CCn1c(CC(=O)Nc2ccc(Cl)c(Cl)c2)nnc1SCc1ccc(Cl)cc1
  A: -0.7 | B: 24 | C: 5 | D: 9 | E: 2 | F: -19
Cc1sc(NC(=O)c2ccccc2)c(C(=O)N2CCN(C)CC2)c1C
  A: 1.0 | B: -3 | C: -11 | D: 14 | E: 20 | F: 0
COc1ccc(COCC(O)CN2CCC(CN3C(=O)c4cccc5cccc(c45)C3=O)CC2)cc1OC (configuration not stated)
  A: 2.1 | B: 5 | C: -19 | D: -23 | E: -20 | F: 3
CN(C)C(=O)c1cccc(-c2cnc3c(NC=O)cc(-c4ccc(C(=O)N5CCOCC5)cc4)cn23)c1
  A: 3.2 | B: . | C: -1 | D: -17 | E: -8 | F: .
Cc1ccc2c(CNCc3ccccc3)cc(=O)oc2c1
  A: 0.1 | B: -8 | C: -6 | D: 11 | E: 0 | F: 9
